Compound activity from PubChem BioAssay.
CtBP-E1A inh: CtBP/E1A binding inhibition; 0.49% of 340,000 active; activity change, % (no concentration beside the values); AlphaScreen GST-E1A/His-CtBP binding, 1536-well; hits give low values; control for the full effect not named in the record; in the data active means activity change below about -65%; inconclusive means about -30% to -65%; inactive means above about -30%; also: % is scaled to controls: 0 for no effect and ±100 for the full control effect; compound concentration not given in the record
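Steps: dispense buffer (Tris pH 8.0, NaCl 300 mM, TCEP 1 mM, BSA, Tween 20); add 5X protein mix (GST-E1A, His-CtBP, 125 nM each); pin 23 nL compound; 2 h at 37 °C, dark; add 5X beads (50 ug/mL); 1 h; read.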
D2 ag: agonists of human D2 dopamine receptor (beta-arrestin); DiscoveRx PathHunter D2 beta-arrestin, luminescence, 90 min; 100% = 57 uM dopamine signal; 0.084% of 360,000 active; P14416; activation, % (no concentration beside the values); AID 624465; in the data active = activation above about 40%; inconclusive = about 15% to 40%; inactive = below about 15%; also: compound concentration not given in the record; the text of the record calls up to 30% inactive
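Agonist mode: compounds alone added to overnight-plated D2 PathHunter cells for 90 min at 37 C, with 57 uM final dopamine (EC100) defining full response. Beta-arrestin recruitment detected by chemiluminescent reagent, read after 1 h at ambient temperature.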
D2 potentiator: human D2 receptor positive allosteric modulation; P14416; DiscoveRx D2 beta-arrestin cells, luminescence, 90 min; 100% = 57 uM dopamine signal; potentiation, % (test concentration not listed); 0.23% of 360,000 active; active = potentiation of 50% or more; inconclusive = 30% to 50%; inactive = 30% or less;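 also: compound concentration not given in the record; tested on top of an EC20 dose of dopamine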
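D2 cells co-treated with compound plus 50 nM dopamine (EC20) for 90 min at 37 deg C to detect potentiation. Beta-arrestin recruitment was read as enzyme-fragment luminescence after 1 h at ambient temperature. Full response was set by 57 uM dopamine.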
gsp ag: agonists of gsp mutant (McCune-Albright syndrome) | gsp mutant cells, cAMP HTRF, 30 min; control for the full effect not named in the record | Potency, µM (top dose mostly 76.9 µM), for the others: top-dose activation (cAMP increase), actives largely listed as activators | 0.13% of 340,000 active | AID 624287; active = well fitted activation curve with a large enough effect; inconclusive = small, poorly fitted or top-dose-only effect, or another doubt; inactive = no such curve, though single readings can be large or run the other way; cell line not stated here;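 also: phosphodiesterase inhibitor Ro 20-1724 added with compounds to block cAMP breakdown; potency is read from the fitted curve at half-maximal effect; nearly all actives have a fitted effect of over 60% in size; about a fifth of the inactives were tested at one dose only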
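Cells stably selected in G418 were plated at 2000/well, grown 16-24 hr, then given compounds in DMSO with the PDE inhibitor […] (300 uM solution added) for 30 min at 37C; cAMP was read by HTRF.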
Six1-Eya2 inh: inhibitors of human Six1/Eya2 interaction; activity change, % (concentration not given with the values); 0.56% of 360,000 active; AlphaScreen GST-Six1/His-Eya2 binding, biochemical; hits give low values; control for the full effect not named in the record; AID 651725; Q15475+O00167; in the data active = activity change below about -65%; inconclusive = about -30% to -65%; inactive = above about -30%; also: % is scaled to controls: 0 for no effect and ±100 for the full control effect
Target sequence (O00167 whole entry, looked up): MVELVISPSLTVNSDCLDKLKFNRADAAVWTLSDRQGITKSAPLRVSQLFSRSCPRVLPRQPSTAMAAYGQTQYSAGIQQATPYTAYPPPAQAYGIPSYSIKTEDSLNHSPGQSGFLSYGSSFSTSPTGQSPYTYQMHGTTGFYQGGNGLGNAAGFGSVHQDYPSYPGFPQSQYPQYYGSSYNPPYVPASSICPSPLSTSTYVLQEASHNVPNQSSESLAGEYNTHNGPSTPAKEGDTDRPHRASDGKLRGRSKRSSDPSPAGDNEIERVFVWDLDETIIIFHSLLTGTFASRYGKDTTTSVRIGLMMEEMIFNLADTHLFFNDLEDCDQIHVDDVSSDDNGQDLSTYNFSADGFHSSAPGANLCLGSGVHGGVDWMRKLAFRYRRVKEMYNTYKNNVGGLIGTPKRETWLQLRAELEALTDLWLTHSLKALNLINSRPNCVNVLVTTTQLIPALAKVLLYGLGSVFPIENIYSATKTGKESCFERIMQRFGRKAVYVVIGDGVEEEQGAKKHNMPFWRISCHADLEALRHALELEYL
Target sequence (Q15475 whole entry, looked up): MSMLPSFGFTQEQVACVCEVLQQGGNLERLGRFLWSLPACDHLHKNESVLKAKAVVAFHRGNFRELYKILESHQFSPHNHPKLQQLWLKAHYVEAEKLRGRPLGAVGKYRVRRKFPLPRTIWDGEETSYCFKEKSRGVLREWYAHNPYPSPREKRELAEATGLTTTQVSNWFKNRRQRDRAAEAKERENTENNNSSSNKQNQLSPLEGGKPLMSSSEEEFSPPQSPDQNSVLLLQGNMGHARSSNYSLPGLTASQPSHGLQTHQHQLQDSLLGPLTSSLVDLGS
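AlphaScreen with GST-Six1 and His-Eya2 (5X mix: 250 nM and 500 nM), glutathione donor and nickel acceptor beads; buffer 50 mM Tris pH 8.0, 300 mM NaCl, 1 mM TCEP; 1 h at 37 C in the dark.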
gsp antag: gsp mutant antagonism. gsp-mutant cells, cAMP HTRF, 30 min; control for the full effect not named in the record. Potency, µM (top dose mostly 76.9 µM), for inactives: top-dose activity change, negative = inhibition, hits mostly inhibitors. 0.4% of 340,000 active; active = falling curve of any shape with a large fitted effect; inconclusive = falling curve, mostly with a smaller effect; inactive = flat or rising curve; cell line not stated here;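 also: intracellular cAMP measured with PDE inhibitor Ro 20-1724 present during compound exposure; potency is read from the fitted curve at half-maximal effect; % is scaled to controls: 0 for no effect and ±100 for the full control effect; nearly all actives have a fitted effect of over 65% in size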
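HTRF cAMP read-out (cAMP-d2 plus anti-cAMP antibody-K in lysis buffer, 30 min RT). Before lysis, cells are exposed to compounds with […] for 30 min at 37C in DPBS containing Ca/Mg, BSA and Tween 20.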
Starred values were filed as active, the others as inactive; ? = inconclusive; . = not tested or not shown; [ ] = another dose, or the depositor's remark.

SMILES	CtBP-E1A inh	D2 ag	D2 potentiator	gsp ag	Six1-Eya2 inh	gsp antag
Cc1cc(=O)[nH]c(SCC(=O)Nc2cc(S(=O)(=O)N3CCCC3)ccc2Cl)n1	0	-4.2	-24	?	-3	-21%
C=CCn1c(SCC(=O)Nc2c(C)n(C)n(-c3ccccc3)c2=O)nc2sc(C)c(-c3ccccc3)c2c1=O	-1	1.6	10	0%	0	-5%
O=c1cc(CSc2nnc(-c3ccco3)o2)c2ccccc2[nH]1	0	-1.9	-7	-14%	15	10%
COc1ccc(N2C(=O)C3C4C=CC(C4)C3C2=O)nn1 (centres undefined)	7	-1.8	13	-9%	7	17%
CC(=O)c1cccc(NC(=O)c2ccc(S(=O)(=O)N3CC(C)OC(C)C3)cc2)c1 (centres undefined)	2	-2.2	-2	19%	9	12%
COCCC(=O)N1CCCC(CNS(=O)(=O)c2ccc(OC)cc2)C1 (centres undefined)	-17	1.8	-10	19%	9	13%
Cn1nc(C(=O)NCCc2ccc3c(c2)OCCO3)c2ccccc2c1=O	1	-4.3	-11	0%	-6	3%
CC1CCC(NC(=O)c2ccc3nc[nH]c3c2)CC1 (centres undefined)	-6	1.3	3	-6%	0	-1%
C/C=C/c1ccc(OCC(=O)Nc2ccncc2)c(OC)c1	8	6.8	4	8%	4	?
Cc1cc(C)cc(NC(=O)CSc2nc3[nH]ncc3c(=O)[nH]2)c1	7	-3.8	-33	-42%[inhibitor]	13	2%
Cc1cccc(C)c1NC(=O)COc1ccc2c(C)c(Cc3ccccc3)c(=O)oc2c1	-22	-7.2	-3	21%[15.4 µM]	3	-5%
Cc1cccc(-n2nc3c(c2NC(=O)c2ccco2)CS(=O)C3)c1C (centres undefined)	-1	-1.4	-4	12%[15.4 µM]	1	6%
O=C(NC1CCCCC1)c1cc(F)cc2c1OCOC2	2	-5.2	-2	?	4	-1%
CC(NC(=O)C(C)N1c2cccc3cccc(c23)S1(=O)=O)c1ccccc1 (centres undefined)	-18	4.1	8	1%[15.4 µM]	3	-16%
COc1cc2[nH]c(=O)n(CCCC(=O)NC3CCCCC3)c(=O)c2cc1OC	15	1.2	-5	-3%[15.4 µM]	2	8%
Cc1ccc(OC(=O)c2ccc(N3CCOCC3)c([N+](=O)[O-])c2)cc1	-17	-1.8	4	-6%	-27	-12%
O=C(O)c1cccc(NC(=O)c2cccc(NC(=O)C3CCCO3)c2)c1 (centres undefined)	-2	-2.4	-7	-20%	5	13%
C/C(=N/Nc1ccc([N+](=O)[O-])cc1)c1ccc(C)cc1C	10	2.3	-6	-40%	1	-13%
O=C(CC1SCCNC1=O)NCc1ccccc1 (centres undefined)	-10	-1.3	-10	-12%	1	.
CC(=O)Nc1ccc(S(=O)(=O)N(CC(=O)O)Cc2ccccc2)cc1	1	-0.6	-9	21%	0	-1%
O=C1Oc2ccccc2C(=O)/C1=C/c1ccccc1O	1	2.2	1	8%[15.4 µM]	-1	1%
C=CCN(CC=C)S(=O)(=O)c1ccc(C(=O)Nc2nnc(COC)o2)cc1	.	-1.8	-9	-2%	-23	1%
COc1ccc(C=C2C(=O)OC(C)(C)OC2=O)cc1OC	.	0.9	27	13%	-3	10%
CC1(C(=O)NS(=O)(=O)c2cccc(C#N)c2)CCN1C(=O)Cc1cc(F)ccc1F (centres undefined)	3	6.4	-2	.	4	.
CN(C(=O)CC1C(=O)NCCN1CC(c1ccccc1)c1ccccc1)C(C1CC1)C1CC1 (centres undefined)	.	-3.5	-19	0%	-3	-6%

An excerpt from above in order of molar mass, largest number first:
SMILES	CtBP-E1A inh	D2 ag	D2 potentiator	gsp ag	Six1-Eya2 inh	gsp antag
Cc1cccc(C)c1NC(=O)COc1ccc2c(C)c(Cc3ccccc3)c(=O)oc2c1	-22	-7.2	-3	21%[15.4 µM]	3	-5%
COc1cc2[nH]c(=O)n(CCCC(=O)NC3CCCCC3)c(=O)c2cc1OC	15	1.2	-5	-3%[15.4 µM]	2	8%
Cc1ccc(OC(=O)c2ccc(N3CCOCC3)c([N+](=O)[O-])c2)cc1	-17	-1.8	4	-6%	-27	-12%

(continued)
SMILES	CtBP-E1A inh	D2 ag	D2 potentiator	gsp ag	Six1-Eya2 inh	gsp antag
O=C1CSC(=S)N1N=Cc1cccc2ccccc12	2	-1.2	-23	21%	-24	1%
CCOc1ccccc1NS(=O)(=O)c1ccc2c(c1)N(C)CCO2	-8	0.2	-8	5%	-13	0%
CCOc1cc(C)c(Cl)cc1S(=O)(=O)NCC1CCCO1 (centres undefined)	-4	-5.1	-15	3%	-2	8%
C[C@@H]1CCCCO[C@H](CN(C)C(=O)Nc2ccc3c(c2)OCO3)[C@@H](C)CN([C@H](C)CO)C(=O)c2cc(NS(=O)(=O)c3ccc(F)cc3)ccc2O1	2	-0.4	.	?	-6	.
O=C(O)c1cccn1Cc1ccccc1F	-3	-1.0	-5	-10%	1	1%
CCCOc1cccc(C2C(C(=O)c3ccc(C)o3)=C(O)C(=O)N2CCN2CCOCC2)c1 (centres undefined)	4	-0.4	-2	32µM*	-2	19%
COC(=O)c1ccccc1NC(=O)CCNC(=O)Cn1cnc2ccccc2c1=O	5	-2.4	18	-14%	0	6%
CC(CNC(=O)c1ccc2c(c1)OCO2)c1ccc([N+](=O)[O-])cc1 (centres undefined)	17	-2.4	-5	0%	-7	-6%
CC1(C)CC(C(CCN(Cc2ccccc2)C(=O)c2ccco2)c2ccc(F)cc2)CCO1 (centres undefined)	-7	3.4	-4	-3%	-12	28µM*
C/C(CC(=O)Nc1ccc(Cl)c(Cl)c1)=N\NC(N)=S	-2	-2.6	2	-15%	-7	1%
N#CCCN1CCN(S(=O)(=O)c2ccc(C3CCCCC3)cc2)CC1	9	-3.6	-18	3%	-5	6%
Cc1cc(NC(=O)c2ccc([N+](=O)[O-])cc2)n(C)n1	-14	-0.4	1	3%[15.4 µM]	2	-3%
COc1ccccc1C(=O)N(Cc1cccs1)C1CCS(=O)(=O)C1 (centres undefined)	3	0.1	1	-19%	7	11%
CCOC(=O)[C@H]1[C@H]2COc3ccc(Br)cc3[C@@H]2N2C(=O)c3cc(OC)c(OC)cc3NC(=O)[C@@]12C	.	0.0	-2	5%	-13	-8%
Cc1ccc(S(=O)(=O)[N-]c2nc3ccccc3nc2-n2cc[n+](CCC(C)C)c2)cc1	8	0.0	-20	?	-3	4%
CCOC(=O)c1ccc(NC(=O)C2C3CCCCC32)cc1 (centres undefined)	-2	4.3	1	-1%[15.4 µM]	-9	-14%
CC(C)N(C)CCOC(=O)C1COc2ccccc2O1 (centres undefined)	-8	-3.3	-18	-17%	-12	2%
CC(C)[C@H](CN(N=O)[C@@H](Cc1ccccc1)CN(C)N=O)N(CCc1ccccc1)N=O	-14	-3.3	-3	.	-24	-14%
COc1cccc(OCC(=O)NCCS(=O)(=O)N2CCN(c3ccccc3)CC2)c1	0	4.4	16	-7%	-3	.
Cn1c(-c2ccc3nc(N)sc3c2)nc2cc(N)ccc21	-2	-1.2	-10	?	5	14%
O=c1c2ccccc2c2ccccc2c(=O)n1CC1CCCO1 (centres undefined)	3	-2.0	-5	17%	-2	5%
COC(=O)c1cc(=O)nc2sc3cc(OC)ccc3n12	8	-2.7	-9	17%	-2	9%
COCC(=O)Nc1nnc(-c2ccc(C(C)(C)C)cc2)s1	1	-9.6	-10	9%	-2	5%
CNC(=O)CCc1[nH]c2ccccc2c1Sc1ccccc1	1	-1.8	-14	-16%	-7	7%
Cc1ccc(CN(C)C(=O)CCc2nc3sc4c(c3c(=O)[nH]2)CCCC4)o1	-5	-1.2	8	-90%[inhibitor]	-11	-12%
Additional compounds follow:
SMILES	CtBP-E1A inh	D2 ag	D2 potentiator	gsp ag	Six1-Eya2 inh	gsp antag
O=C(CN1CCc2ccccc21)NCc1ccccc1Cl	-17	-1.3	-7	3%	-3	2%
CC(C)[C@H](NC(=O)c1ccccc1)C(=O)OCc1nc2scc(-c3ccccc3)c2c(=O)[nH]1	-10	0.5	8	-14%	-18	-22%
COc1ccc(NC(=O)C2(C)Cc3c(-c4cccc(NC(C)=O)c4)ccnc3O2)cc1 (centres undefined)	25	3.6	-9	.	20	.
COc1ccc(/C=C(\NC(=O)c2ccccc2)C(=O)NCc2cccnc2)cc1	10	0.7	-1	-4%	2	5%
C=CCOC(=O)COc1ccc2c3c(c(=O)oc2c1)CCCC3	-12	-2.6	-20	-1%	0	.
CCCSc1nnc2n(-c3ccccc3OC)c(=O)c3c4c(sc3n12)CCC4	-9	1.5	-8	-48%[inhibitor]	-2	?
COc1cc(C(CC(=O)N2CCCC2)c2c(OC)cc(OC)c3ccc(=O)oc23)cc(OC)c1OC (centres undefined)	.	-0.2	-9	-1%	-18	-2%
COc1ccc(OC)c(S(=O)(=O)N2CCC(C(=O)N(C)Cc3ccccc3)CC2)c1	0	1.6	-3	0%[15.4 µM]	4	-2%
CCO[C@H]1OC(C(=O)O)=C[C@@H](C(C)(C)C)[C@@H]1CCCO	0	5.5	2	-82%[inhibitor]	18	7%
COc1ccc(N2CCCC2)c(NC(=O)COc2ccccc2)c1	-22	-2.6	-6	20%	-22	-41%
CCC(=O)Oc1ccc(C(CC)C(CC)c2ccc(OC(=O)CC)cc2)cc1 (centres undefined)	2	3.5	2	.	-1	-3%
C=C(C)C(=O)N1CC2(CC(c3cccc(NC(=O)CC(c4ccccc4)c4ccccc4)c3)=NO2)C[C@H]1C(N)=O (some centres undefined)	-19	5.4	2	.	-9	-7%
CC1CN(C(=S)SCCN2C(=O)CCC2=O)CC(C)O1 (centres undefined)	0	4.9	0	23%	5	7%
O=C(O)COc1ccc2nsnc2c1Cl	5	-5.5	2	5%	0	?
COc1ccc(S(=O)(=O)N2CCCC(C(=O)NCc3ccccn3)C2)cc1 (centres undefined)	1	-2.7	3	23%	-2	-3%
COc1ccc(C(C)=O)cc1CC(=O)NC1CCCCCC1	2	-3.3	-3	-15%[15.4 µM]	1	-6%
COc1ccc(/C=C/C(=O)NC(=S)NNC(=O)Cc2cccs2)cc1OC	?	-1.6	-5	-10%	-22	3%
COc1ccc(-c2ccnc(-c3ccc(OCCCF)cc3)n2)cc1	-11	-4.9	3	?	16	-13%

Whole records from above. Values in the order: CtBP-E1A inh, D2 ag, D2 potentiator, gsp ag, Six1-Eya2 inh, gsp antag
`CCC(=O)Oc1ccc(C(CC)C(CC)c2ccc(OC(=O)CC)cc2)cc1` (centres undefined) as listed: 2, 3.5, 2, ., -1, -3%
`CCO[C@H]1OC(C(=O)O)=C[C@@H](C(C)(C)C)[C@@H]1CCCO` as listed: 0, 5.5, 2, -82%[inhibitor], 18, 7%
`C=CCOC(=O)COc1ccc2c3c(c(=O)oc2c1)CCCC3` as listed: -12, -2.6, -20, -1%, 0, .
`COc1ccc(/C=C/C(=O)NC(=S)NNC(=O)Cc2cccs2)cc1OC` as listed: ?, -1.6, -5, -10%, -22, 3%
`COc1ccc(/C=C(\NC(=O)c2ccccc2)C(=O)NCc2cccnc2)cc1` as listed: 10, 0.7, -1, -4%, 2, 5%
